# NPYLR7 agonist = activates Aedes aegypti NPYLR7 receptor | AID 1259423 | 270,000 tested, 0.15% active | HEK293T NPYLR7/Galpha15, GCaMP6s calcium fluorescence | activation, % at 10 µM; in the data active = activation above about 40%;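 note: 0% = vehicle and 100% = reference agonist at the receptor; some compounds past the cut are filed as inactive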
# NPYLR7 agonist max-min = recorded beside NPYLR7 agonist, whose call it bears; activation, %; measured here: Max-Min RFU normalised activation; some inactives read as strong as hits;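 span of the calcium signal over five minutes; 0% = vehicle and 100% = native peptide agonist; compound fluorescence can raise it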
# Active calls of the source: *; & = joins results of further samples. An excerpt (hit frequency here may not be typical).
Molecule | NPYLR7 agonist max-min | NPYLR7 agonist
O=C(Cn1cnc2c(nnn2-c2ccc(F)cc2)c1=O)NCCc1ccccc1 | 9 | 7
COc1ccc(OC)c2c1CN(c1nc(C)cc(C)n1)CC2O (configuration not stated) | -6 | -2
COc1ccc(CCOC(=O)C2CCCCN2C(=O)c2ccc(C)c([N+](=O)[O-])c2)cc1OC (configuration not stated) | -11 | -6
COc1cccc(CNc2nc3cc(-c4ccc(C(=O)N5CCN(C)CC5)cc4)sc3c(=O)n2C)c1 | -2 | 2
CCN(C)c1c(C)nc2c(OCCn3cccc3)cccn12 | -7 | 7
CCc1nc2ccc(C(=O)Nc3ccc(NC(C)=O)cc3)cn2c1N(CC)Cc1cccc(Br)c1 | 22 | -3
O=C(NN=Cc1ccc(Cl)cc1Cl)c1n[nH]c2c1CCC2 | 2 | -2
COc1ccc(OC)c(C2CCCN2c2cc(C)nc3ncnn23)c1 (configuration not stated) | 0 | 5
CCN(CC)c1onc(-c2ccccc2)c1CN(Cc1ccccc1)C(=O)c1cccc(F)c1 | 7 | 4
C=CCCCCCCCCC(=O)N1CCN(Cc2cc(=O)c(OCc3ccc(-c4ccccc4C#N)cc3)co2)CC1 | 10 | 29
O=C(c1ccccc1)C1CCN(Cc2cc3n(n2)CCCNC3)CC1 | 3 | 3
Cc1ccc(C2C(C#N)C(=N)SC(=N)C2C#N)cc1 (configuration not stated) | 5&29 | 7&32
OCCOCCNCc1ccc(-c2ccccc2)cc1 | -14 | -8
CC1(C)C2(C(=O)N3CCN(c4c5c(nc6ncnn46)CCC5)CC3)CC[C@@]1(C)C(=O)O2 | 3 | 7
CCc1nc2ccc(C(=O)N3CCNC(=O)C3)cn2c1N(C)C(=O)c1ccncc1 | 7 | 1
CCCCC(Nc1nn2cc(C)nc2s1)C1CCC1 (configuration not stated) | 3 | 8
CCc1cc(N2CCCCC2C)nc(SCc2ccc(C(=O)NCc3ccco3)cc2)n1 (configuration not stated) | -5 | -5
COc1ccccc1-n1c(C)nnc1SCc1ccc(C(=O)NCc2ccc3c(c2)OCO3)cc1 | 15 | 14
CCCCOc1ccc(-c2nc(C=Nc3ccccc3C#N)c(O)o2)cc1 | -12 | -5
O=C(O)c1cc(C(=O)O)cc(N2C(=O)CSC2=S)c1 | 12 | 7
COc1cccc(CN2CCC(n3nc(C)cc3C)C2)c1O (configuration not stated) | 9 | 14
O=C(c1ccccc1C1CCNC1)N1CCC(O)(Cc2ccccc2)CC1 (configuration not stated) | -3 | -1
CN(C)CCNCc1c(-c2ccccc2)noc1N1CCc2ccccc2C1 | 0 | 1
CC1(NC(=S)Nc2ccc(NC(=S)NC3(C)CCS(=O)(=O)C3)cc2)CCS(=O)(=O)C1 (configuration not stated) | -2 | -1
COc1ccc(F)cc1S(=O)(=O)NCc1ccc2c(c1)OCO2 | 6 | 1

# Another view of two compounds above.
O=C(NN=Cc1ccc(Cl)cc1Cl)c1n[nH]c2c1CCC2
  NPYLR7 agonist max-min: 2 | NPYLR7 agonist: -2

O=C(O)c1cc(C(=O)O)cc(N2C(=O)CSC2=S)c1
  NPYLR7 agonist max-min: 12 | NPYLR7 agonist: 7

# Other entries
Molecule | NPYLR7 agonist max-min | NPYLR7 agonist
CSc1ccc(S(=O)(=O)N(CC(=O)N2CCOCC2)c2ccc(C)cc2)cc1 | -4 | -1
CCCCn1nc(C(=O)Nc2cccc(N3CCCC3=O)c2)ccc1=O | 1 | 6
Cc1cc(C)cc(-c2nc3cc(C)ccn3c2NC(=O)Cc2ccccc2)c1 | -8 | -16
Fc1ccc(-c2cnc[nH]2)cc1 | -15 | -9
CCCCCCCCCCCC(=O)N(CCO)CCO | -39 | -32
O=C(NCCc1ccccc1)C1=C2c3ccccc3S(=O)(=O)N2CC1 | 3 | 9
CCCCNC(=O)C1(C)CCCCN1C(=O)c1oc2ccccc2c1C (configuration not stated) | -8 | -8
CC(C)Nc1nc(N)c(C(=O)c2ccccc2)s1 | 0 | 1
CCCCOC(=O)N1CC(=O)N(Cc2ccc(Cl)cc2)CC(O)C1 (configuration not stated) | 0 | -9
CC(=O)Nc1ccc(O)c(C(=O)N2CCC3(CCOCC3)CC2)c1 | 4 | 8
Cc1nc(CNC(C)c2ccc(Cl)c(Cl)c2)cs1 (configuration not stated) | -1 | 1
CCCc1nc2c(c(=O)c3ccccc3n2C)c(=O)n1C1CCCC1 | 7 | 9
C1=CC2CC1CC2CN1CCN(Cc2ccncc2)CC1 (configuration not stated) | 0 | 6
CCc1nc2n(n1)C(=O)C(C(c1ccccc1Cl)N1CCN(C)CC1)S2 (configuration not stated) | -7 | -4
CCOC(=O)CCNC(=O)NCc1nnnn1C1CCCCC1 | 1 | 3
Cc1ccc(Cn2c(=O)c3c(nc4n(C(C)C)c(C)c(C)n34)n(C)c2=O)cc1 | 7 | 3
CCOCCn1ccc2c(OCC(N)=O)cccc2c1=O | 7 | -2
CC1CCN(Cc2nnnn2CC(=O)N2CCCC(C(=O)c3cccnc3)C2)CC1 (configuration not stated) | 19&-1 | 24&7
CN(C)S(=O)(=O)c1ccc(SCCc2ccncc2)nc1 | 8 | 14
Cn1c(COc2ccccc2Cl)nnc1SCC(=O)NCCOc1ccccc1 | -8 | -7
CC1(C(=O)Nc2ccncc2)CCN1C(=O)C/C=C/c1ccccc1 (configuration not stated) | -8 | -4
CC(C)(C)C(NS(=O)(=O)c1ccc(F)cc1)c1ccccc1 (configuration not stated) | 11 | 12
COc1ccc(CC(=O)Nc2cc(C)nn2-c2nc(-c3cccs3)cs2)cc1 | -13 | -5
CCOC(=O)C(C)(C)N(C)C(=O)CNC(=O)Cc1cccc(F)c1 | 3 | 4
CC(C)c1cccc(NC(=O)CS(=O)(=O)Cc2ccn(C)c(=O)c2)c1 | 1 | 1

# (list continues)
Molecule | NPYLR7 agonist max-min | NPYLR7 agonist
COc1ccc2cnn(-c3cccc(Cl)c3)c(=O)c2c1OC | 8 | 10
COCCN(CCOC)C(=O)C(C)(C)Oc1ccc(C(N)=O)cc1 | -10 | -7
Cc1cccc(NC(=O)CC2CSc3nccc(=O)n32)c1C (configuration not stated) | 0 | 0
CCn1ccnc1[C@@H]1C[C@H]2CN(Cc3cccc(Cl)c3)C(=O)[C@]23CCCN13 | -9 | -9
CC(=O)N1C(=O)/C(=C2\SC(=S)N(C(CC(=O)O)C(=O)O)C2=O)c2ccccc21 (configuration not stated) | -10 | 3
COc1cc(COC2CCCN(C(=O)Nc3cccc(Cl)c3)C2)cc(OC)c1 (configuration not stated) | 11 | 6
CCn1c(N)c(C(=O)CN(Cc2ccco2)C2CCCC2)c(=O)[nH]c1=O | 12 | 15
Cc1nc2n(n1)C(=O)C(C(c1ccc(Br)cc1)N1CCC(O)CC1)S2 (configuration not stated) | 5 | 9
Cc1noc(C)c1S(=O)(=O)N1CCN(C(=O)c2ccc(Cl)c(Cl)c2)CC1 | 0 | 5
COCCN(CC(=O)N(CCc1ccc(OC)c(OC)c1)Cc1ccc(C)o1)C(=O)c1ccco1 | 6 | 9
Cc1cccc(N2CC(C(=O)OCn3nnc4ccccc4c3=O)CC2=O)c1C (configuration not stated) | -3 | -1
C=C(C)CS(=O)(=O)c1ccccn1 | -9 | -6
COc1ccccc1-n1ncc2c(=O)[nH]c(SCC(=O)NCc3ccc4c(c3)OCO4)nc21 | -2 | -3
Cc1ccccc1C1=NC(C)(CC(=O)NCc2ccc(N(C)C)cc2)ON1C (configuration not stated) | 1 | 7
COc1ccc(C2CC(=O)Nc3ncnn32)cc1 (configuration not stated) | 33 | -1
COc1ccc(CCC(=O)Nn2c(=O)oc3ccccc3c2=O)cc1 | -1 | -1
CCN(CC)C(=O)COC(=O)c1c(C)nsc1N | 8 | 2
COC(=O)C1=CN(Cc2ccc(OC)cc2)C=C(C(=O)OC)C1c1ccc(OC)c(O)c1 | 3 | 5
CSc1nc(-c2ccccc2)nc2c1CCCC2 | 4 | 7
COc1ccc(NC(=O)c2cnn3c2NC(c2ccco2)CC3C(F)(F)F)c(OC)c1 (configuration not stated) | -7 | 2
COc1cccc(-c2cc(C(=O)NC(C)C(C)C)n3nc(-c4ccccc4)cc3n2)c1 (configuration not stated) | 9 | 2
OC(c1ccc(CN(Cc2ccccc2)CC2CCCO2)o1)(c1cccs1)c1cccs1 (configuration not stated) | 3 | -8
CC(=O)c1cc(CC(=O)NC2CC(=O)N(C3CCCCCC3)C2)cs1 (configuration not stated) | -1 | 1
CCOC(=O)C1(C)CCN1C(=O)c1ccc(OC)c(OC)c1 (configuration not stated) | 1 | 3
Cc1c(C(=O)N2CCCC3(CC2)CN(C)C(=O)O3)n(C)c2c(C)cccc12 (configuration not stated) | 8 | 12

# Single records, as listed above. Order of values: NPYLR7 agonist max-min	NPYLR7 agonist
# Results for CC(=O)N1C(=O)/C(=C2\SC(=S)N(C(CC(=O)O)C(=O)O)C2=O)c2ccccc21 (configuration not stated) = -10	3
# Results for Cc1nc2n(n1)C(=O)C(C(c1ccc(Br)cc1)N1CCC(O)CC1)S2 (configuration not stated) = 5	9
# Results for Cc1c(C(=O)N2CCCC3(CC2)CN(C)C(=O)O3)n(C)c2c(C)cccc12 (configuration not stated) = 8	12

# New compounds follow.
Molecule | NPYLR7 agonist max-min | NPYLR7 agonist
O=C(NCc1ccccc1)c1cc(C2COCCN2C(=O)CCCc2ccccc2)on1 (configuration not stated) | -5 | -2
CCc1nc([C@H]2CN(C)C[C@@H]2C(=O)NCc2ccccc2OC)c(C)[nH]1 | -4 | 0
O=C(C1CC1)N(Cc1cccc(Cl)c1)CC1CC(c2ccc(F)cc2)=NO1 (configuration not stated) | 13 | 23
Cc1cc(=O)c(C(=O)N2CCC3(CCCN(CC4CCC4)C3)C2)c[nH]1 (configuration not stated) | 12 | 20
COc1cc(C2NC(=O)NC(C)=C2C(=O)OCCSC)ccc1OCc1ccccc1 (configuration not stated) | -3 | -2
CNC(=O)[C@@H]1C[C@@H](N)CN1Cc1cc(-c2ccccc2)no1 | 5 | 4
O=c1c(N=Nc2ccc(Cl)cc2)c(-c2ccccc2)[nH]n1-c1nc(-c2ccccc2)cs1 | 19 | 10
C=CCSc1nnc(-c2cc(Br)ccc2N)c(=O)[nH]1 | -6 | -4
Cc1nc2ccc(C(=O)N(C)Cc3ccccc3)cn2c1N(C)C(=O)CCc1ccccc1 | 15 | -3
COCC(=O)N(C)CCOc1c(C)ccc(C)c1C | -3 | 12
O=C(Cc1ccc(-c2ccccc2)cc1)NCC(c1ccsc1)N1CCCC1 (configuration not stated) | -8 | 4
O=C(NCCN1CCOCC1)c1csc(COc2cccc(F)c2)n1 | 18 | 8
COC(=O)c1ccc(C(=O)NC2CC3CCC(C2)N3Cc2ccc3c(c2)OCO3)cc1 (configuration not stated) | 10 | 3
CCOCCCn1c(SCc2ccc(OC(F)F)cc2)nc2cc(S(=O)(=O)N3CCOCC3)ccc21 | 12 | 17
OCc1cc(-c2ccc(Cl)cc2)on1 | -5 | -5
COc1ccc(-c2nc(CN(C)Cc3ccccn3)c(C)o2)c(F)c1 | -1 | 0
CC1Cc2cc(-c3cc(CO)no3)ccc2O1 (configuration not stated) | -4 | -5
N#Cc1ccc(OCC(=O)NNC(=O)Cc2cccc(C(F)(F)F)c2)cc1 | -1 | -1
NC(=O)C1CCCN(CCn2cnc(-c3ccccc3)c2-c2ncc[nH]2)C1 (configuration not stated) | 11 | 18
Cc1ccccc1N1CCN(Cc2ccc(C#CCO)s2)C(C)C1 (configuration not stated) | 16 | 29
COC(CNC(=O)C(Cc1c[nH]c2ccccc12)NC(=O)c1ccccc1Cl)OC (configuration not stated) | -7 | -1
CC1(C)CC(CN2CCC(CCC(=O)NCc3cccc(Cl)c3)CC2)CCO1 (configuration not stated) | 1 | 5
Cn1c(Cl)cnc1COC(=O)C1=Cc2cc(Cl)ccc2OC1 | 6 | 11
Cc1ccc(CN2CCN(N=Cc3cccc4ccccc34)CC2)c(C)c1 | -8 | -2
COCc1nc2ccc(C)cc2c2c1C(=O)N(CC1COc3ccccc3O1)C2=O (configuration not stated) | -16 | -8

# (further entries)
Molecule | NPYLR7 agonist max-min | NPYLR7 agonist
CC1CN(C(=O)CN2CCc3sccc3C2c2cccc(F)c2)CCN1C(=O)CCC1CCCC1 (configuration not stated) | 9 | 12
COCCCN(CC(=O)N(CCc1ccc(OC)c(OC)c1)Cc1cccs1)C(=O)C1C[C@H]1c1ccccc1 (some centres not stated) | -9 | -14
CCOC(=O)Cn1cnc2c(nnn2Cc2ccccc2F)c1=O | 9 | 7
O=S(=O)(Nc1ccc(F)c(F)c1F)c1ccc(Cl)c2ncccc12 | 4 | 5
CC(C)N(CC(=O)Nc1nc(CC(=O)NCc2ccccn2)cs1)C(=O)c1ccc(Cl)cc1 | -4 | -8
O=C1NC2(CCCCC2)C(=O)N1CCOc1ccc(Cl)cc1Br | 1 | 3
CCC(C)N(Cc1ccncc1)Cc1ccc2cccc(O)c2n1 (configuration not stated) | -7 | 5
Cn1c(NCC2CCCO2)nc2cnc(-c3ccsc3)cc21 (configuration not stated) | -3 | 5
COc1cc(NC(=O)c2ccccn2)ccc1Cl | -18 | -12
O=C(CCC1CCN(C(=O)c2ccsc2)CC1)NC1CC1 | 2 | 3
COCC(=O)Nc1cccc(-c2ccc(F)c(CO)c2)c1 | 0 | 7
CC(C)c1cc(CN2CCC(c3ccnc(-c4cccc(O)c4)c3)C2)on1 (configuration not stated) | 3&4 | 12&6
CCc1ncc2c(n1)CN(C(=O)Cc1ccccc1OCc1ccccc1)C2 | 5 | 5
O=C(N=C1N=C2C=CC(I)=CN2Cc2ccccc21)c1ccc2ncccc2c1 | -10 | -4
CCOc1nc(-c2ccc(F)cc2)n(-c2cccc(NC(=O)c3ccc([N+](=O)[O-])cc3)c2)n1 | 28 | 30
CCCOc1cccn2c(N(C)C(=O)C3CC3)c(CC)nc12 | -4 | -1
COc1ccc(C)cc1N1C(=O)CSC1c1cccc(NC(=O)Nc2ccc(F)cc2F)c1 (configuration not stated) | 16 | 19
O=C(c1ccc(Cl)c(Cl)c1)N1CCCC(OCc2ccc(Br)cc2)C1 (configuration not stated) | -3 | -4
CCc1cc2cccnc2n1S(=O)(=O)c1ccccc1 | 4 | 5

# From PubChem
